Cruzain noTriton – cruzain (T. cruzi) inhibition without detergent. P25779. purified cruzain, Z-FR-AMC fluorescence, no detergent. Potency, µM, without a hit: max response, negative = inhibition, actives largely listed as inhibitors. 2.3% of 200,000 active. AID 1476; active means well fitted curve in the direction sought with a large enough effect; inconclusive means small, poorly fitted or top-dose-only effect, or another doubt; inactive means no such curve, though single readings can be large; an effect the other way counts as inactive or inconclusive;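 further: plate controls were enzyme without inhibitor for no effect and buffer without enzyme for full effect; nearly all actives have a fitted effect of over 40% in size; top concentration of the series not given in the record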
Target sequence (P25779 123-467 limits assumed): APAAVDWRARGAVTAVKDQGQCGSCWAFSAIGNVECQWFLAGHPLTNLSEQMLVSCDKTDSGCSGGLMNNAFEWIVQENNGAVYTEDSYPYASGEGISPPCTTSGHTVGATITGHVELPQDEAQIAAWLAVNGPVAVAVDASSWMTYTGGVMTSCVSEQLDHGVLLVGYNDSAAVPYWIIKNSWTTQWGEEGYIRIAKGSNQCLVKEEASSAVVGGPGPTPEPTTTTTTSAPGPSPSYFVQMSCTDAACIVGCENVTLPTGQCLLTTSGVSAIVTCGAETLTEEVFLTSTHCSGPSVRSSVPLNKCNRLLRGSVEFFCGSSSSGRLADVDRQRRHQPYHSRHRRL
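Purified cruzain at 1.5 nM, pre-incubated 15 min with compound at room temperature in 100 mM sodium acetate pH 5.5, 5 mM DTT, 0.00005% Triton X-100. Reaction started with 2 uM Z-FR-AMC; AMC fluorescence increase over 60 s gives rate.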
Lassa entry inh – inhibitors of Lassa virus binding or cell entry; Lassa virus pseudotype entry inhibition, cell reporter; control for the full effect not named in the record; Potency, µM (top dose mostly 37.9 µM), for inactives: at the top dose activity change, negative = inhibition, most hits filed as inhibitors; 1.2% of 300,000 active; active means well fitted inhibition curve with a large enough effect; inconclusive means small, poorly fitted or top-dose-only effect, or effect the other way; inactive means flat fitted curve, though single readings scatter; tested in HEK293 cells; further: on the % scale 0 is the no-effect control and ±100 the full control effect; nearly all actives have a fitted effect of over 50% in size; luciferase read-out
StopGo reporter – lowers the luciferase signal of an FMDV 2A StopGo reporter | AID 1159524 | human cells with a luciferase reporter of 2A StopGo recoding; control for the full effect not named in the record | Potency, µM (highest dose often 57.9 µM), without a hit: at the highest dose signal change, negative = less light | 1.2% of 410,000 active; active = well fitted falling curve with a large enough effect; inconclusive = small, poorly fitted or top-dose-only effect; inactive = no such curve, though single readings can be large or run the other way; tested in HEK293T cells; further: on the % scale 0 is the no-effect control and ±100 the full control effect; nearly all actives have a fitted effect of over 45% in size; luciferase light after 4 h
MARV entry inh – Marburg virus entry inhibition; Marburg virus pseudotyped entry inhibition, cell reporter; control for the full effect not named in the record; about a third of the inactives were read at about 46 µM; Potency, µM (series often up to 37.8 µM), without a hit: at the top dose activity change, negative = inhibition, most hits filed as inhibitors; 1.8% of 300,000 active; active = well fitted inhibition curve with a large enough effect; inconclusive = small, poorly fitted or top-dose-only effect, or effect the other way; inactive = flat fitted curve, though single readings scatter; tested in HEK293 cells; about a fifth of its hits are not listed in these tables; further: on the % scale 0 is the no-effect control and ±100 the full control effect; luciferase read-out
Cruzain Triton – cruzain (T. cruzi) inhibition with detergent; purified cruzain, Z-FR-AMC fluorescence, 0.01% Triton; Potency, µM, inactives show max response, negative = inhibition, usual class: inhibitors; 0.43% of 200,000 active; active means well fitted curve in the direction sought with a large enough effect; inconclusive means small, poorly fitted or top-dose-only effect, or another doubt; inactive means no such curve, though single readings can be large; an effect the other way counts as inactive or inconclusive;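 further: plate controls were neutral wells for no effect and buffer without enzyme for full effect; nearly all actives have a fitted effect of over 40% in size; top concentration of the series not given in the record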
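Enzyme 1.5 nM, Z-FR-AMC 2 uM, NaOAc 100 mM pH 5.5, DTT 5 mM, Triton X-100 0.01%; 15 min RT compound preincubation; kinetic ex360/em450, 60 s delta.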
SARS PLpro yeast – SARS-CoV PLP inhibition in yeast; S. cerevisiae expressing SARS-CoV PLpro, growth rescue; control for the full effect not named in the record; Potency, µM (series often up to 32.9 µM), inactives show top-dose activity, positive = growth rescue; 0.19% of 330,000 active; AID 485353; further: 0% is about no effect; nearly all actives have a fitted effect of over 55% in size; growth read by luminescence after 48 h
RE007 growth inh – less growth of the S. pombe RE007 Vpr strain. S. pombe RE007 Vpr strain, BacTiter-Glo ATP luminescence, 24 h; control for the full effect not named in the record. Potency, µM (top dose mostly 92.2 µM), without a hit: top-dose activity change, negative = less growth. 0.21% of 360,000 active; active = well fitted falling curve with a large enough effect; inconclusive = small, poorly fitted or top-dose-only effect; inactive = no such curve, though single readings can be large or run the other way;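 further: on the % scale 0 is the no-effect control and ±100 the full control effect; nearly all actives have a fitted effect of over 50% in size; the assay follows cell death caused by Vpr and the record does not say whether a fall means rescue or toxicity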
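Fission yeast RE007 carrying one integrated HIV-1 vpr copy, seeded at OD 0.01 in PMG+AL medium with 23 nL pinned compound. Grown 24 h at 30 degrees; viability read by BacTiter-Glo luminescence after 5 min.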
NS1 function inh – influenza NS1 inhibition; S. cerevisiae slowed by influenza A NS1, growth recovery by OD600; Potency, µM (top dose mostly 46.1 µM), inactives show top-dose activity, positive = more growth; 0.4% of 270,000 active; AID 2326; further: actives are rising curves; nearly all actives have a fitted effect of over 50% in size
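Compounds were scored for reversing the slow growth caused by influenza A NS1 in S. cerevisiae, measured by optical density at 600 nm. Assay medium contained 2% galactose at pH 6.0; NS1-free yeast of the same strain were the positive control.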
Starred values were filed as active, the others as inactive; ? = inconclusive; / = not tested or not shown; & = joins results of further samples; [ ] = another dose, or the depositor's remark. Unless noted, the call rests on the fitted dose curve; in most records, active means well fitted rising curve with a large enough effect; inconclusive means small, poorly fitted or top-dose-only effect; inactive means no such curve, though single readings can be large or run the other way. Potency means the concentration at half of the fitted maximal effect.

Second line of a record: MARV entry inh, Cruzain Triton, NS1 function inh, StopGo reporter, RE007 growth inh, Cruzain noTriton, SARS PLpro yeast, Lassa entry inh
CC(=O)Nc1ccc(S(=O)(=O)NCCC(=O)NCc2ccncc2)cc1
 : -17%, /, /, -2%, 5%, /, -5%, 0%
CC1CCN(S(=O)(=O)c2ccc3c(c2)oc(=O)n3CC(=O)N2c3ccccc3CC2C)CC1 (stereo not drawn)
 : 3%, -3.1%, -8%, 0%, 7%, ?, -6%, /
O=C(c1cc2ccccc2oc1=O)N1CCN(Cc2ccc3c(c2)OCO3)CC1
 : 13%, -4.4%, -8%, -8%, 1%, -4%, -6%, -1%
CN(CC(=O)Nc1cccc(F)c1)C(=O)c1ccc(NC2CC2)c([N+](=O)[O-])c1
 : -2%, /, /, 0%, 1%, /, /, -13%
O=C(Nc1nnc(S(=O)(=O)N2CCCCCC2)s1)c1ccccc1Br
 : /, -7.9%, -15%, -23%&-4%, 5%, 12%, -8%, -24%[46.1 µM]
COc1ccc2[nH]c(=O)c(CN(CC3CCCO3)C(=S)Nc3ccc(C)cc3)cc2c1 (stereo not drawn)
 : /, /, 2%, -1%, 0%, /, 0%, /
COc1c(N2CCN(C(=S)Nc3ccccc3)C(C)C2)c(F)cc2c(=O)c(C(=O)O)cn(C3CC3)c12 (stereo not drawn)
 : /, -1.7%, 8%, /, /, -3%, -3%, /
CCCCC(=O)Nc1ccc(NC(=O)CC)cc1OC
 : ?, 4.8%, -1%, -7%, 9%, -2%, 3%, 2%
O=CN1CCN(C(=O)c2cccc([N+](=O)[O-])c2)CC1
 : -2%[46.1 µM], /, 4%, 11%, 21%, /, ?, 1%[46.1 µM]
COc1ccc(OCCSc2nnc(C(C)NC(=O)c3ccccc3F)n2C)cc1 (stereo not drawn)
 : -25%[46.1 µM], /, -1%, -21%, -1%, /, 1%, 9%
CNC(=O)c1cn(-c2ccc(Cl)cc2)c(=O)c2ccccc12
 : 3%[46.1 µM], /, 1%, -14%, 5%, /, 2%, -16%
O=C(CN(c1ccc(F)cc1)S(=O)(=O)c1ccccc1)NC1CCCCCC1
 : 4%, /, 10%, -7%, -22%, /, 2%, 6%
NC(=O)c1ccccc1OCCOc1ccc(Br)cc1
 : ?, /, -35%, -1%, 0%, /, -16%, -30%[46.1 µM]
COCCCn1c(Cc2csc(Nc3cccc(Cl)c3)n2)nnc1SCC(=O)OC
 : -15%, -8.8%, 2%, -3%, 3%, ?, 1%, 18%
Cn1c(NCc2cccc(Br)c2)nc2ccccc21
 : ?, 3.8%, -15%, 24%, 9%, -9%, -6%, -17%
Cc1cccc(NC(=O)CSCC(=O)Nc2ccc(S(=O)(=O)N3CCOCC3)cc2)c1
 : 18%[46.1 µM], /, /, -6%, -4%, /, -6%, 21%
CCOC(=O)c1ccc(S(=O)(=O)NNC(=O)c2cccc(N(C)C)c2)cc1
 : 0%[46.1 µM], /, /, 15%, 7%, /, 1%, 2%
COCCNC(=O)COC(=O)c1nsc(Cl)c1Cl
 : ?, 6.6%, -1%, -17%, -4%, 0%, 3%, 19%
Cc1onc(-c2c(F)cccc2Cl)c1C(=O)N(C)CC(=O)Nc1cccc(F)c1
 : 2%, /, /, -23%, -11%, /, 2%, 2%
FC(F)(F)c1cccc(CON=C2CCN(c3ncc(C(F)(F)F)cc3Cl)CC2)c1
 : -59%, -2.7%, 3%, 9%, 3%, -5%, 2%, -12%
CCOc1ccc(C2C3=C(CCCC3=O)OC(N)=C2[N+](=O)[O-])cc1 (stereo not drawn)
 : 4%, /, 1%, 4%, -8%, /, -1%, 0%
CSCC(C)N1CCC(CO)(CCc2ccccc2)CC1 (stereo not drawn)
 : 3%[46.1 µM], /, 0%, -11%, 5%, /, 1%, -5%[46.1 µM]
O=C1NC(=O)/C(=C/c2cccc(O)c2)N1
 : /, /, 9%, 3%, 10%, /, 3%, /
COc1ccc(CCC(=O)Nc2ccc3c(c2)OCO3)cc1OC
 : 6%, /, 4%, -2%, 10%, /, -1%, 2%
COc1cccc(OC)c1C(=O)Nc1ccc(C)cc1C(=O)c1ccccc1
 : ?, -6.0%, -13%, 0%, 3%, -4%, -12%, ?
O=C(CSCc1ccc(Br)cc1)NCCc1ccccc1
 : /, /, -52%, 4%, -10%, /, -7%, /
O=C(NC1CCN(Cc2ccccc2)CC1)c1ccccc1OCc1ccccc1Cl
 : ?, /, 0%, -29%, 4%, /, -2%, 10µM*
COc1ccc(N2CCN(C(=O)CN3C(=O)c4ccccc4S3(=O)=O)CC2)cc1
 : 13%, -2.9%, -4%, -21%, -5%, -11%, 2%, 3%
CCc1ccc(N(CC(=O)NC(C)C)C(=O)CCC(=O)Nc2ccccn2)cc1
 : ?, /, 7%, -6%, -9%, /, 0%, 21%
CCc1noc(C)c1C(=O)NNC(=O)c1ccc(F)cc1
 : 12%, /, /, -7%, 7%, /, -3%, 2%
CC(CNS(=O)(=O)c1ccc(Br)cc1)CN(C)C (stereo not drawn)
 : /, /, 2%, 14%, -7%, /, 6%, /
COc1cccc(NC(=O)c2ccccc2Br)c1
 : /, /, -5%, 76%[activator], -19%, /, 5%, /
O=C(NCCN1CCCCC1)Nc1ccc(Cl)cc1
 : -2%[46.1 µM], /, 24%, 13%, -4%, /, 0%, 0%[46.1 µM]
COc1cccc(-c2nc(=S)c3c(n2CCCO)CCCC3)c1
 : 1%, -4.0%, -4%, /, -11%, -22%, 4%, -8%
Cc1onc(-c2ccccc2Cl)c1C(=O)N(Cc1nc(-c2ccccc2)no1)C1CCCCC1
 : ?, 3.6%, 10µM*, -4%, -9%, 7%, -3%, ?
COc1cccc(-n2cc(C(=O)NCCCOC(C)C)c3ccccc3c2=O)c1
 : /, /, -3%, -12%, -1%, /, -1%, /
CCOC(=O)c1c(CSc2ccccc2)oc2cc(Br)c(O)c(CN(C)C)c12
 : ?, /, 5%, ?, -7%, /, 0%, 3%[46.1 µM]
O=C(COC(=O)c1cnccn1)Nc1cccc2ccccc12
 : 12%[46.1 µM], /, 7%, -14%, 21%, /, 0%, 24%[46.1 µM]
COc1cc(OC)c(OC)cc1CN1CCSCC1
 : 0%, /, 11%, 1%, -5%, /, -4%, -10%
Cc1ccc(NC(=O)c2cc([N+](=O)[O-])ccc2NCc2cccnc2)cc1
 : -3%, -6.2%, 2%, -18%, -8%, -7%, -5%, 8%
CCCc1nnc(NC(=O)CCC(=O)N2CCN(Cc3ccc(OC)c(F)c3)CC2)s1
 : /, /, 16%, ?, -9%, /, -11%, /
O=C(CCn1c(=S)oc2ccccc21)Nc1cccc(O)c1
 : -1%[46.1 µM], /, /, 0%, -4%, /, 2%, -27%
O=C1NCCCC1C(=O)N/N=C/c1cccc([N+](=O)[O-])c1 (stereo not drawn)
 : -4%[14.2 µM], /, 0%, 9%, 10%, /, -1%, 3%
Cc1cccc(C(C)C)c1-n1nnnc1-c1ccccc1
 : ?, 4.2%, -97%, /, -12%, -9%, -12%, 10%
COc1ccc(Cn2ccc3nc(C)c(C(=O)Nc4ccc(OC(F)(F)F)cc4)cc3c2=O)cc1
 : /, -5.1%, /, -28%, /, ?, /, -23%[46.1 µM]
Cc1ccc(C)c(NC(=O)CSc2ccc3nc(-c4ccccc4)cn3n2)c1
 : /, 1.8%, /, -1%, /, -8%, /, 0%[46.1 µM]
Cc1csc(NC(=O)c2oc3ccccc3c2C)n1
 : ?, /, /, -2%, ?, /, -8%, ?
Cc1ccc(NC(=O)CCc2nnc3ccc(N4CCC5(CC4)OCCO5)nn23)nc1
 : /, /, 9%, -14%, 0%, /, 1%, /
Cn1c(=O)c2c(ncn2CC(=O)OCC(=O)Nc2ccc(Cl)cc2Cl)n(C)c1=O
 : ?, -1.5%, 4%, 2%, ?, -14%, 10%, 5%
Cc1ccc(NNC(=O)C(O)(c2cccc(C(F)(F)F)c2)c2cccc(C(F)(F)F)c2)cc1
 : ?, -8.7%, -24%, ?, 13%, -11%, -66%, ?
N#CCCN1CCN(S(=O)(=O)c2ccc(S(=O)(=O)NC3CCCCC3)cc2)CC1
 : -1%&-1%, 0.4%, -24%, 9%, -5%, 7%, 1%, 0%
O=C(CCSCc1ccccc1)Nc1ccc2c(c1)OCCO2
 : 0%, /, -9%, 36%[activator], 6%, /, -1%, 4%
C=CCn1c(-c2cc(OC)c(OC)c(OC)c2)n[nH]c1=S
 : 8%, 2.7%, -2%, 17%, 0%, 7%, 3%, -5%
CCCN(CCC)C(=O)C1CCN(c2ccc(S(=O)(=O)N3CCOCC3)cc2[N+](=O)[O-])CC1
 : 25%, /, -2%, ?, -8%, /, 1%, -2%
Cc1noc2ncnc(Oc3ccccc3)c12
 : 20%[46.1 µM], 3.6%, -24%, -28%, -13%, -3%, 2%, 10%
COc1ccc(Cl)cc1NC(=O)C(C)N1CCN(C/C=C/c2ccccc2)CC1 (stereo not drawn)
 : ?, 0.2%, -3%, -28%, 1%, 10%, -1%, ?
Cn1nc(C(=O)NCc2ccccc2)cc1C(=O)NCc1ccccc1
 : /, /, 18%, -15%, 0%, /, 10%, /
COc1ccc(N2C(=O)CC(Nc3cccc(C(C)=O)c3)C2=O)cc1OC (stereo not drawn)
 : -21%[46.1 µM], 4.8%, 19%, 21%, 14%, -8%, -3%, -2%
CC(=O)c1c(N2CCN(c3cccc(Cl)c3)CC2)nc(=S)n(-c2ccccc2)c1C
 : -9%, 1.5%, ?, /, 5%, 10%, -2%, 6%
CC(C)OCCCn1c(-c2ccco2)nc2nc3ccccc3nc21
 : -16%, ?, -38%, -9%, 4%, ?, 5%, -2%
Cc1ccc2[nH]c(O)c(N=Nc3ccccc3C)c2c1
 : 14%[46.1 µM], /, 9%, 27%, 30%, /, 3%, -5%[46.1 µM]
COc1cccc(OCc2cc(C(=O)N3CCC(C(O)C(C)C)CC3)no2)c1 (stereo not drawn)
 : /, /, -15%, -16%, 4%, /, 0%, /
Cc1ccc(S(=O)(=O)NCCC(=O)Nc2ccc(Cl)cc2C(=O)c2ccccc2)cc1
 : -20%, -12%, -3%, 8%, -3%, 12%, 2%, ?
